Bioassay records (PubChem)
AID923: qHTS Assay for Allosteric/Competitive Inhibitors of Caspase-1: Spectroscopic Profiling in AFC Spectral Region; Potency, µM (top dose mostly 57.5 µM), without a hit: at the highest dose fluorescence increase, hits mostly activators; compound fluorescence, AFC spectral region (405/520 nm); almost no hit is shown here; AID 923, 2007; actives 1.1% (n = 75,000); active = well fitted activation curve with a large enough effect;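 also: 0% is about no effect; scaled to a free AFC standard on each plate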
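Baseline compound fluorescence (AFC region, 405 nm ex/520 nm em) taken from the intercept of kinetic reads with 50 nM caspase-1 and 5 uM Ac-WEHD-AFC; normalized to an on-plate AFC standard curve; compounds titrated up to 57 uM.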
* marks the source's active call; other numbers are inactive results. Potency is read from the fitted curve at half-maximal effect. This is a subset, so the mix of outcomes need not match the whole.

SMILES	AID923
O=C1c2ccc(O)c(O)c2C(=O)c2c(O)ccc(O)c21	-0.3%
COc1cc(O)c2c(=O)cc(-c3ccc(OC)c(-c4c(O)cc(O)c5c(=O)cc(-c6ccc(O)cc6)oc45)c3)oc2c1	-1.5%
CC(=O)O[C@@]1(C(C)=O)CCC2C3C=C(Cl)C4=CC(=O)C5CC5[C@@]4(C)C3CC[C@]21C (stereo partly drawn)	-5.2%
CC(C(=O)O)c1ccc(C(=O)c2cccs2)cc1 (stereo not drawn)	-1.5%
O=C(O)[C@H]1[C@H]2C[C@H]3c4[nH]c5ccccc5c4CCN3C[C@@H]2CC[C@@H]1O	18%
CN1CCOC(c2ccccc2)c2ccccc2C1 (stereo not drawn)	0.1%
CC(=O)C1CCC2C3CC(C)C4=CC(=O)CC[C@@]4(C)C3C(O)C[C@@]12C (stereo partly drawn)	2.3%
CCOC(=O)C(CCc1ccccc1)NC(C)C(=O)N1Cc2ccccc2CC1C(=O)O (stereo not drawn)	-1.0%
COc1ccc(C(=O)CC(=O)c2ccc(C(C)(C)C)cc2)cc1	-4.3%
C=CC1=C(C(=O)O)N2C(=O)C(NC(=O)/C(=N\O)c3csc(N)n3)C2SC1 (stereo not drawn)	-1.2%
COC(=O)C1=CO[C@@H](O[C@H]2OC(CO)C(O)C(O)C2O)C2C1CC(O)C2C (stereo partly drawn)	1.4%
O=c1cc(-c2ccc(O)cc2)oc2cc(OC3OC(CO)C(O)C(O)[C@H]3O[C@@H]3OC[C@@](O)(CO)C3O)cc(O)c12 (stereo partly drawn)	1.3%

An excerpt of these results, field by field.
COc1ccc(C(=O)CC(=O)c2ccc(C(C)(C)C)cc2)cc1
  AID923 = -4.3%

C=CC1=C(C(=O)O)N2C(=O)C(NC(=O)/C(=N\O)c3csc(N)n3)C2SC1 (stereo not drawn)
  AID923 = -1.2%

COC(=O)C1=CO[C@@H](O[C@H]2OC(CO)C(O)C(O)C2O)C2C1CC(O)C2C (stereo partly drawn)
  AID923 = 1.4%

O=c1cc(-c2ccc(O)cc2)oc2cc(OC3OC(CO)C(O)C(O)[C@H]3O[C@@H]3OC[C@@](O)(CO)C3O)cc(O)c12 (stereo partly drawn)
  AID923 = 1.3%
